# PV pol inh: poliovirus RNA polymerase inhibition; poliovirus polymerase elongation, fluorescence polarization; active compounds read low; % elongation, % (compound at 16.7 µg/mL); 0.66% of 150,000 active; AID 588519; in the data active means % elongation below about 90%; further: some results filed as inactive read as strong as hits
# MenB inh: Mtb MenB enzyme inhibition; P9WNP5; MenB enzyme assay, absorbance read-out; some hits fall short of the stated cut; inhibition, %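 (about 12 µg/mL by stock and volumes)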; 0.43% of 100,000 active;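 active means mean of two replicates above 30%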;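 further: 0% = no compound and 100% = wells with inactive enzyme; the first replicate is given; strong numbers were not always called active; inactives centre near -10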
# Target sequence (P9WNP5 whole entry, looked up): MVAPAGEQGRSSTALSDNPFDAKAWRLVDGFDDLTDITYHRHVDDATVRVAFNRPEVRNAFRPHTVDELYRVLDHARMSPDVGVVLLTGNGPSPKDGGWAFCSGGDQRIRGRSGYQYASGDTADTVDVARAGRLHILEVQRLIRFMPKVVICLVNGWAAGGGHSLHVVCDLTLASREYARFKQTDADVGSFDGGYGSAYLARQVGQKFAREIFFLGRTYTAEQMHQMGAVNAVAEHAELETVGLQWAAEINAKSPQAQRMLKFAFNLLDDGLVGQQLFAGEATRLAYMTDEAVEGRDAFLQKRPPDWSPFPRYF
# MbtI inh: inhibitors of Mycobacterium tuberculosis siderophore enzyme MbtI | purified MbtI enzyme, fluorescence intensity read-out | inhibition, %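 (about 17 µg/mL by stock and volumes)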 | 0.89% of 100,000 active;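 active means above 50% in both replicates, above 80% if mildly self-fluorescent; inactive means the rest, strongly fluorescent compounds included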;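 further: 0% = mean of negative and 100% = mean of positive controls; one replicate is shown; some compounds called inactive have numbers as strong as hits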
# Target sequence (P9WFX0 whole entry, looked up): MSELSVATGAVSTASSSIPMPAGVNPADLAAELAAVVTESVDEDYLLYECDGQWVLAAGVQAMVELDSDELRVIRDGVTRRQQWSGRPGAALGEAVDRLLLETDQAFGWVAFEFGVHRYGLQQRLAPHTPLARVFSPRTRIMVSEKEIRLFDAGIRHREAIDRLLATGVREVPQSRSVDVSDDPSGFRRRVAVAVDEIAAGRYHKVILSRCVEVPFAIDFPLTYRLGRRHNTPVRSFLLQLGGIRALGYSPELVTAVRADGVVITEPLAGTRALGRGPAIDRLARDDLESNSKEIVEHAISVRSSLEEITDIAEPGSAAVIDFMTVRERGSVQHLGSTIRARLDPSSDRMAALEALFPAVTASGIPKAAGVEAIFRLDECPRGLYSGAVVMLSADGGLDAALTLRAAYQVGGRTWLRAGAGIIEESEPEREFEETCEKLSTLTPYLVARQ
# PV pol inh intensity: also measured in PV pol inh; calls as there; % elongation; measured here: total intensity read-out; formula for this scale not given here;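 total fluorescence in place of polarization; lower means less elongation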
# Starred values were filed as active, the others as inactive; i = inactive; / = no result given; & = joins results of further samples.
# The first two entries as a preview:
# Abbreviations: A = PV pol inh; B = PV pol inh intensity; C = MenB inh; D = MbtI inh
1: CCN(CC)c1ncccc1C(=O)NCc1cccs1
  A = 102; B = 99; C = -74; D = -17
2: CC1CCN(C(=O)COC(=O)c2cccs2)CC1
  A = 99; B = 98; C = /; D = -4

# This part in full, repeating the preview:
# Abbreviations: A = PV pol inh; B = PV pol inh intensity; C = MenB inh; D = MbtI inh
1: CCN(CC)c1ncccc1C(=O)NCc1cccs1
  A = 102; B = 99; C = -74; D = -17
2: CC1CCN(C(=O)COC(=O)c2cccs2)CC1
  A = 99; B = 98; C = /; D = -4
3: O=C(Nc1cc2ccccc2oc1=O)c1ccccc1
  A = 100; B = 101; C = 0; D = 3
4: Cc1cc2nc(N3CCCC3C(N)=O)c3ccccc3n2n1 (configuration not stated)
  A = 101; B = 93; C = -3; D = 104
5: CC1CCCCN1C(=O)Cn1cc(C(=O)c2ccccc2)c2ccccc21 (configuration not stated)
  A = 103; B = 107; C = -18; D = -3
6: O=C(OCCN1C(=O)c2ccccc2C1=O)c1ccc(-n2cnnn2)cc1
  A = 104; B = 101; C = -11; D = -3
7: Cn1c(SCc2nnc(-c3ccc(Cl)cc3)o2)nc2sccc2c1=O
  A = 104; B = 102; C = -26; D = 6
8: Cn1c(=O)c(C(=O)NCCCc2ccccc2)cc2cccnc21
  A = 104; B = 113; C = -1; D = 17
9: c1ccc2c(-c3csc(-c4ccc(-c5ccno5)s4)n3)csc2c1
  A = 98; B = 105; C = 2; D = -7
10: COc1ccc(-n2ncc(NC(=O)NCc3ccccn3)c2C)cc1
  A = 104; B = 103; C = 13; D = 2
11: CCC(CC)C(=O)Nc1cccc(C(=O)NCc2ccco2)c1
  A = 103; B = 105; C = 8; D = 10
12: N#CC(C#N)=Cc1ccc(-c2cccs2)s1
  A = 102; B = 109; C = -9; D = 9
13: COC(=O)c1ccccc1NC(=O)c1c(C)nn(-c2ccccc2)c1-n1cccc1
  A = 100; B = 102; C = 2; D = -10
14: Cc1cccc(Cn2ccn(Cc3ccccc3)c(=O)c2=O)c1
  A = 101; B = 104; C = -6; D = 65
15: COc1ccc(Br)cc1C(=O)NCc1cccnc1
  A = 99; B = 103; C = -2; D = 7
16: O=C(/C=C/c1ccccc1)NCCO
  A = 104; B = 97; C = -76; D = -7
17: c1ccc(Cn2nnnc2C(c2ccccc2)N2CCN(Cc3ccncc3)CC2)cc1 (configuration not stated)
  A = 101; B = 101; C = -5; D = -6
18: Cc1nc(C)nc(NC(=O)NC(=O)c2cc(OCC(F)(F)F)ccc2OCC(F)(F)F)n1
  A = 103; B = 106; C = 0; D = -53
19: Cc1ccc(S(=O)(=O)NC(=O)CC#N)cc1
  A = 103; B = 102; C = -18; D = -4
20: CCN(CC)CCCN1C(=O)C(=O)/C(=C(/O)c2cc(C)ccc2C)C1c1cccs1 (configuration not stated)
  A = 103; B = 110; C = -16; D = /
21: CC1(C)Cc2c(c(N3CCOCC3)nc3sc4c(c23)N2C(=O)CCC2(C)NC4=O)CO1 (configuration not stated)
  A = 101; B = 101; C = -11; D = -23
22: Cc1ccc2c(c1)CCCN2C(=O)C1CCCO1 (configuration not stated)
  A = 99; B = 106; C = -2; D = -7
23: O=C1NCN(c2ccccc2)C12CCN(CCCC(c1ccc(F)cc1)c1ccc(F)cc1)CC2
  A = 99&102; B = 101&101; C = -3; D = -3&-14
24: CNC(=S)NN(Cc1ccccc1)c1ccccc1
  A = 104; B = 100; C = 9; D = 3
25: O=C(c1sc2cc(F)ccc2c1Cl)N1CCCCCC1
  A = 102; B = 100; C = /; D = 0
26: COc1nc2sccn2c1/C=N/N1CC(=O)NC1=O
  A = 100; B = 106; C = -25; D = -12
27: COc1cccc(CN2C(=O)C3(C(C#N)=C(N)OC4=C3C(=O)CCC4)c3ccccc32)c1 (configuration not stated)
  A = 103; B = 105; C = -7; D = /
28: O=c1c2ccc(Cl)cc2nc(SCc2nnc(-c3cccs3)o2)n1Cc1ccco1
  A = 102; B = 110; C = -13; D = 3
29: O=C(CCCCn1c(=O)[nH]c2ccsc2c1=O)N1CCN(c2ccccc2)CC1
  A = 107; B = 106; C = -19; D = 0
30: CN(C)/C=C/C=C/c1cc(=O)cc(/C=C/C=C/N(C)C)o1
  A = 92; B = 92; C = -95; D = 26
31: CCCNC(=O)c1ccc2ncsc2c1
  A = 105; B = 104; C = -11; D = 22
32: O=C(OCC(=O)N1CCCCC1)c1cccc2ccccc12
  A = 103; B = 98; C = -26; D = 103
33: CCOc1ccccc1NC(=O)c1ccc2nc[nH]c2c1
  A = 111; B = 125; C = -16; D = -20
34: CC(C)OP(C)(=O)CN1CCCC1=O (configuration not stated)
  A = 99; B = 102; C = 9; D = 4
35: CCC(O)c1nc2ccccc2n1CCOc1ccc(C)c(C)c1 (configuration not stated)
  A = 101; B = 103; C = 4; D = 9
36: CCCCCCCC1C(=O)NC(=O)NC1=O
  A = 102; B = 103; C = -14; D = 8
37: CC1CCC(NS(=O)(=O)c2ccc3c(c2)n(C)c(=O)c(=O)n3C)CC1 (configuration not stated)
  A = 103; B = 98; C = 5; D = 5
38: Cc1nc(SCC(C)C)c(C#N)c(C)c1C
  A = 105; B = 108; C = -23; D = /
39: CCCN1CCN(S(=O)(=O)c2cc(OCC)c(-n3cnnn3)cc2OCC)CC1
  A = 103; B = 98; C = 19; D = 61
40: OC(CN1CCOCC1)Cn1c2ccccc2c2ccccc21 (configuration not stated)
  A = 104; B = 103; C = -8; D = -75
41: O=C(c1c(Cl)nc2sccn12)N1CCCc2ccccc21
  A = 103; B = 108; C = /; D = -3
42: Cc1cccc(Nc2nc(CC(=O)O)cs2)c1
  A = 102; B = 101; C = -20; D = 37
43: COc1ccc(NC(=O)CN2CCC(N3CCCCC3)CC2)c(OC)c1
  A = 103; B = 102; C = -49; D = 3
44: COc1ccccc1C(=O)NCCC(=O)Nc1ccc(N2CCN(C)CC2)cc1C
  A = 97; B = 90; C = 0; D = -1
45: CCn1c(=NC(=O)c2ccc(S(=O)(=O)N(C)C)cc2)sc2cc(C(=O)OC)ccc21
  A = 102; B = 100; C = 0; D = 24
46: COc1ccc(Cn2c(=O)[nH]c3cc(C(=O)NC4CCCCC4)ccc3c2=O)cc1
  A = 97; B = 100; C = -10; D = -10
47: CCc1nnc2c(NCC3CCCO3)nc3ccccc3n12 (configuration not stated)
  A = 101; B = 102; C = -11; D = 26
48: Cc1[nH]n(-c2ccccc2)c(=O)c1S(=O)(=O)c1ccccc1
  A = 104; B = 105; C = /; D = -5
49: COc1ccc(-c2[nH]c3ccccc3c2SCCNC(=O)c2ccc3c(c2)OCO3)cc1
  A = 102; B = 95; C = -36; D = 107
50: CCOC(=O)c1cc(-c2ccccc2)n(-c2ccc(C(=O)O)cc2)c1C
  A = 100; B = 102; C = -23; D = -1

# Next part.
# Abbreviations: A = PV pol inh; B = PV pol inh intensity; C = MenB inh; D = MbtI inh
51: O=C(CSC1CCCC1)c1ccccc1F
  A = 101; B = 104; C = /; D = -58
52: OCCNc1nc2ccccc2n1Cc1ccccc1
  A = 100; B = 102; C = /; D = -9
53: COc1ccc(Cc2nnc3n2N=C(c2ccc(C)c(C)c2)C(C)S3)cc1OC (configuration not stated)
  A = 87*; B = 88*; C = -18; D = 47
54: CN(C1CCCCC1)S(=O)(=O)c1ccc(C(=O)Nc2nnc(-c3cccnc3)o2)cc1
  A = 102; B = 103; C = -20; D = 9
55: CN(C)Cc1cc2ccccc2[nH]1
  A = 104; B = 104; C = -18; D = /
56: Nc1c(-c2nc(-c3ccc4c(c3)OCO4)no2)nnn1-c1ccc(C(F)(F)F)c(Cl)c1
  A = 102; B = 103; C = -10; D = 30
57: CCNS(=O)(=O)c1ccc(-c2oc3cc(S(=O)(=O)NCC)ccc3c2Cl)cc1
  A = 105; B = 106; C = -23; D = i
58: N#Cc1ccc(S(=O)(=O)N2CCN(S(=O)(=O)c3cccs3)CC2)cc1
  A = 102; B = 103; C = 5; D = 0
59: CCC(CC)NC(=O)CN1C(=O)C2CC=CCC2C1=O (configuration not stated)
  A = 102; B = 98; C = 4; D = -10
60: O=C(COC(=O)c1cc2c(s1)CCC2)c1ccc[nH]1
  A = 103; B = 100; C = -24; D = 1
61: CC(C)N(C(=O)CSc1nc(=O)n2ccccc2n1)C(C)C
  A = 106; B = 107; C = -15; D = -3
62: Cc1ccc2onc(CNC(=O)Nc3cccc(C(F)(F)F)c3)c2c1
  A = 103; B = 101; C = -34; D = -11
63: COc1ccccc1NC(=O)c1cc(=O)[nH]c2ccccc12
  A = 101; B = 102; C = /; D = -10
64: CCC/C(=N\O)c1c[nH]c2ccccc12
  A = 102; B = 100; C = 16; D = 7
65: Cc1c(C(=O)Nc2ccc(F)cc2F)sc2ncnc(N(C)c3ccccc3)c12
  A = 102; B = 106; C = -3; D = 1
66: C=CCNc1cc(-c2ccccc2)nc2nncn12
  A = 102; B = 105; C = -12; D = -3
67: COCCNS(=O)(=O)c1cc(Br)cc2c1N(C(C)=O)CC2
  A = 100; B = 102; C = -11; D = -5
68: Cc1cccc2nc(CBr)cn12
  A = 101; B = 106; C = /; D = 14
69: O=C(N/N=C1/C(=O)c2cccc3cccc1c23)NC1CCCCC1
  A = 102; B = 102; C = -36; D = 4
70: CCN(CC)CCn1c(N)nc2ccccc21
  A = 103; B = 99; C = /; D = -9

# Of the compounds above, 3 have bromine:
# Abbreviations: A = PV pol inh; B = PV pol inh intensity; C = MenB inh; D = MbtI inh
15: COc1ccc(Br)cc1C(=O)NCc1cccnc1
  A = 99; B = 103; C = -2; D = 7
67: COCCNS(=O)(=O)c1cc(Br)cc2c1N(C(C)=O)CC2
  A = 100; B = 102; C = -11; D = -5
68: Cc1cccc2nc(CBr)cn12
  A = 101; B = 106; C = /; D = 14

# Next section:
# Abbreviations: A = PV pol inh; B = PV pol inh intensity; C = MenB inh; D = MbtI inh
71: CN(CC(=O)Nc1cccnc1)S(=O)(=O)c1ccc2[nH]c3c(c2c1)CCCC3
  A = 104; B = 108; C = -1; D = -2
72: O=C(ONc1cnc2ccccc2c1)c1ccco1
  A = 99; B = 102; C = -4; D = 19
73: CCCC(C)C(=O)NCc1ccc(C)cc1 (configuration not stated)
  A = 93; B = 95; C = -35; D = /
74: O=C(NCc1ccccc1)c1cc2ccc(O)cc2oc1=O
  A = 99; B = 102; C = -325; D = i
75: CCOc1ccc(-c2cn3c(n2)sc2cc(C(=O)NCc4cccs4)ccc23)cc1
  A = 102; B = 104; C = 4; D = 166
76: N#CCCn1c(CC(N)=O)nc2ccccc21
  A = 100; B = 103; C = -3; D = -8
77: Cc1cccc(OCC(=O)Nc2ccc3c(c2)nc2n3CCN(c3ccccc3)C2)c1
  A = 99; B = 102; C = -15; D = -21
78: CSc1nn(-c2ccccc2)cc1C(=O)N1CCCCC1
  A = 102; B = 103; C = -22; D = 31
79: Clc1ccc(Cn2nnc3c(SCc4cccnc4)ncnc32)cc1
  A = 99; B = 99; C = -20; D = 3
80: Cc1onc(-c2ccccc2)c1C(=O)ON=C1C2CC3CC(C2)CC1C3
  A = 104; B = 102; C = -6; D = -2

# Record cards (already shown). Order of screens: PV pol inh	PV pol inh intensity	MenB inh	MbtI inh
# Results for CCCNC(=O)c1ccc2ncsc2c1 → 105	104	-11	22
# Results for COc1ccc(Cn2c(=O)[nH]c3cc(C(=O)NC4CCCCC4)ccc3c2=O)cc1 → 97	100	-10	-10

# (cont.)
# Abbreviations: A = PV pol inh; B = PV pol inh intensity; C = MenB inh; D = MbtI inh
81: CC1(C)CCc2cc(CN3CCN(c4ncc(C(F)(F)F)cc4Cl)CC3)ccc2O1
  A = 108; B = 106; C = -32; D = -4
82: CC12CS(=O)(=O)CC1SC(=S)N2Cc1ccccc1 (configuration not stated)
  A = 101; B = 107; C = 7; D = -4
83: C/C(=N\NC(=O)c1ccc(NS(=O)(=O)c2cccs2)cc1)c1cccs1
  A = 104; B = 100; C = 15; D = 15
84: Clc1cccc(-c2cc3nc4c(c(N5CCCCC5)n3n2)CCCC4)c1
  A = 103; B = 105; C = -66; D = 6
85: O=C1OC(c2ccc(Cl)cc2)/C(=C(/O)c2ccccc2)C1=O (configuration not stated)
  A = 101; B = 106; C = -7; D = -5
86: Cc1ccc(N=Cc2ccc3c(c2)OCCO3)cc1C
  A = 104; B = 107; C = /; D = -10
87: O=C(O)c1cccc(OCc2ccccc2)c1
  A = 100; B = 93; C = /; D = -2
88: Nc1nc(N)nc(COc2ccccc2)n1
  A = 104; B = 101; C = -11; D = -11
89: COc1ccc(Cn2cccc2C2=NCC(C)O2)cc1 (configuration not stated)
  A = 104; B = 102; C = -17; D = -12
90: O=C(COC(=O)c1cccc2ccccc12)NC1CC1
  A = 101; B = 103; C = -1; D = 106
91: Cc1cc(OCC(=O)N(C)C2CCCCC2)ccc1Cl
  A = 103; B = 100; C = -6; D = 0
92: Cc1nn(C(=O)C2CC2)c(C)c1Sc1ccccc1
  A = 104; B = 107; C = -20; D = -5
93: CC(C)=Cc1c(O)nc2ccccn2c1=O
  A = 101; B = 108; C = -44; D = /

# Screening data as filed in PubChem BioAssay.
